Six1-Eya2 inh: Six1/Eya2 interaction inhibition; Q15475+O00167; AlphaScreen GST-Six1/His-Eya2 binding, biochemical; stronger effect = lower value; control for the full effect not named in the record; activity change, % (concentration not given with the values); 360,000 compounds, 0.56% hits; AID 651725; in the data active = activity change below about -65%; inconclusive = about -30% to -65%; inactive = above about -30%; also: % is scaled to controls: 0 for no effect and ±100 for the full control effect
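Six1/Eya2 binding was read as AlphaScreen signal after compounds were pinned into GST-Six1 plus His-tagged Eya2 (5X stock 250/500 nM) in pH 8.0 Tris/NaCl/TCEP buffer, beads added, then incubated 1 h, 37 C, dark.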
D2 potentiator: potentiates the human D2 dopamine receptor allosterically. 360,000 compounds, 0.23% hits. DiscoveRx D2 beta-arrestin cells, luminescence, 90 min; 100% = 57 uM dopamine signal. P14416. potentiation, % (no concentration beside the values). AID 624464; active = potentiation of 50% or more; inconclusive = 30% to 50%; inactive = 30% or less;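 also: compound concentration not given in the record; tested on top of an EC20 dose of dopamine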
Target sequence (P14416 whole entry, looked up): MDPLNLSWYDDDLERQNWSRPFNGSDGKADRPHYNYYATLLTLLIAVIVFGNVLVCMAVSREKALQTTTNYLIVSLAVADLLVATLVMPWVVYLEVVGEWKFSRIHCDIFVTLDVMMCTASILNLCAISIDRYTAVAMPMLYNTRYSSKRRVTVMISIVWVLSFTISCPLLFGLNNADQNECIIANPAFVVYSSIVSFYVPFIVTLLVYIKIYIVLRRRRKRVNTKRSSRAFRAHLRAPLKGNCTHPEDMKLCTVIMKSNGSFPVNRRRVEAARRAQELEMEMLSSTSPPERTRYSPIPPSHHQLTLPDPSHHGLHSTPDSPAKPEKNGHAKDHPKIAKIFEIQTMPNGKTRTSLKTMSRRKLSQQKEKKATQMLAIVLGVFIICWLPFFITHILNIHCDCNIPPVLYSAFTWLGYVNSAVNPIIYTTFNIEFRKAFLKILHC
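PathHunter beta-arrestin assay in DiscoveRx D2 cells. Compounds were added with an EC20 of dopamine (50 nM final) for 90 min at 37 deg C. Luminescence was read 1 h after detection reagent, with 57 uM dopamine as the EC100 control.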
PINK1 expr mod: changes PINK1 expression; Potency, µM (series often up to 76.6 µM), for inactives: at the highest dose activation (PINK1 increase), actives largely listed as activators; PINK1 immunofluorescence, high-content cytometry, 24 h; 410,000 compounds, 0.2% hits; active = well fitted activation curve with a large enough effect; inconclusive = small, poorly fitted or top-dose-only effect; inactive = flat fitted curve, though single readings scatter; cell line not stated here;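 also: potency is read from the fitted curve at half-maximal effect; % of control where 0% means no effect; nearly all actives have a fitted effect of over 65% in size; a mitochondrial uncoupler was the plate control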
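PINK1 protein, normally rapidly degraded, was detected by immunofluorescence after 24 hour compound treatment of a stable cell line. Titration data (5 concentrations) came from laser-scanning cytometry, with CCCP-treated wells as controls.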
TRPML1 inh: human mucolipin-1 channel inhibition; Q9GZU1; TRPML1-inducible cells, Ca2+ dye fluorescence, FDSS; stronger effect = lower value; inhibition of EC80 agonist-evoked calcium signal; activity change, negative = inhibition, % (test concentration not listed); 390,000 compounds, 0.02% hits; AID 624415; in the data active means activity change below about -50%; inconclusive means about -30% to -50%; inactive means above about -30%;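 also: stimulus is agonist 54-4 at its EC80 concentration; % is scaled to controls: 0 for no effect and ±100 for the full control effect; compound concentration not given in the record; the text of the record puts the active cut at -80%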
Target sequence (Q9GZU1 whole entry, looked up): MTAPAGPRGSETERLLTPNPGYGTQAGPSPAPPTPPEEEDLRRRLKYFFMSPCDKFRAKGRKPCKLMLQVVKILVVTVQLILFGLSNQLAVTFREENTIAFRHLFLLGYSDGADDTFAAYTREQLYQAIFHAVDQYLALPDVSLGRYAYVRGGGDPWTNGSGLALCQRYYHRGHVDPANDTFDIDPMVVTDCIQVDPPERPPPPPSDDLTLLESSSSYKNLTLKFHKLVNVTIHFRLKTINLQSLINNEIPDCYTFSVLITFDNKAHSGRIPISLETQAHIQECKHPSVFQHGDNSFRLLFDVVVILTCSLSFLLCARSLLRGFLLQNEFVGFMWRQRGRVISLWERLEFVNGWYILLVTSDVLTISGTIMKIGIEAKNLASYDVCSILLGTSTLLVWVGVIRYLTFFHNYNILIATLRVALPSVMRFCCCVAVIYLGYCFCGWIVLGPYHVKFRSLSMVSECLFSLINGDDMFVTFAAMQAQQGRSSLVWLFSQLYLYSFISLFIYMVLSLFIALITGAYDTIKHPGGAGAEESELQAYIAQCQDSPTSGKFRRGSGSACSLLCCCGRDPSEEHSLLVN
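Calcium fluorescence in TRPML1-DL cells induced overnight with Tet: a 110 s read after compound pin addition, then a 110 s antagonist read after challenge with 54-4 at 4 uM final (EC80).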
D2 ag: agonists of human D2 dopamine receptor (beta-arrestin). DiscoveRx PathHunter D2 beta-arrestin, luminescence, 90 min; 100% = 57 uM dopamine signal. activation, % (concentration not given with the values). 360,000 compounds, 0.084% hits; in the data active = activation above about 40%; inconclusive = about 15% to 40%; inactive = below about 15%; also: the text of the record calls up to 30% inactive
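Agonist mode: compounds alone added to overnight-plated D2 PathHunter cells for 90 min at 37 C, with 57 uM final dopamine (EC100) defining full response. Beta-arrestin recruitment detected by chemiluminescent reagent, read after 1 h at ambient temperature.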
TRPML1 agonist: agonists of human TRPML1 channel | activation, % (concentration not given with the values) | Q9GZU1 | TRPML1-expressing cells, Ca2+ dye fluorescence, FDSS; host cell line not named in the record; reference of the full effect not given here | AID 624414 | 410,000 compounds, 0.12% hits; in the data active = activation above about 50%; inconclusive = about 30% to 50%; inactive = below about 30%; also: 0% is about no effect; the text of the record puts the active cut at 80%
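In this qHTS format, compounds were pin-transferred onto Ca8-dye-loaded TRPML1-DL cells induced with Tet overnight, and intracellular Ca2+ fluorescence was recorded kinetically for 110 s after a 10 s baseline. A subsequent 4uM final 54-4 (EC80) addition followed by a second 110 s read served as the antagonist phase.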
* hit, by the source's call; ? = inconclusive; . = not tested or not shown; [ ] = another dose, or the depositor's remark. This is a random part of the collection; overall some 1% were active at least once.

SMILES	Six1-Eya2 inh	D2 potentiator	PINK1 expr mod	TRPML1 inh	D2 ag	TRPML1 agonist
CCOc1ccc(-c2nnc(-c3ccco3)o2)cc1	-5.3	-10.7	.	8.4	0.5	0.4
CN(C(=O)c1cccc(NC(=O)Cc2cccc(NC(=O)C3CCN(C(=O)c4ccccc4)CC3)c2)c1)C1CCCC1	-0.2	-2.1	-0.8%	8.6	-1.7	4.7
Cc1cc(C)cc(OCC(=O)Nc2nc(-c3cccnc3)cs2)c1	0.8	-2.3	4.8%	4.8	3.1	0.8
O=C(Oc1ccc(Cl)cc1)N1CCOCC1	12.3	-9.9	-0.5%	22.2	-0.3	0.9
Cc1ccc2c(c1)NC(=O)C(CC(=O)Nc1cc(Cl)ccc1C)O2 (configuration not stated)	.	.	0.3%	4.0	.	-0.3
CCCS(=O)(=O)NC(=O)C1(C)CCN(C(=O)c2cccc(OC(F)(F)F)c2)C1 (configuration not stated)	10.5	-7.6	-0.4%	-1.8	-1.5	0.3
COc1cc(NC(=O)C2CCN(S(=O)(=O)c3c(C)noc3/C=C/c3cccs3)CC2)cc(OC)c1	.	.	5.1%	18.2	.	0.2
Cc1cccc(N2C(=O)CC(Sc3nccc(C)n3)C2=O)c1 (configuration not stated)	12.4	14.6	2.4%	-16.9	-0.1	0.1
COCCN1C(=O)N(c2cccc(C)c2)C(=O)C1CC(=O)Nc1cc(OC)cc(OC)c1 (configuration not stated)	-5.5	-2.5	-1.0%	-10.0	7.5	-0.2
COc1ccc(-c2nc(CS(=O)(=O)CC(=O)NCCCc3ccccc3)c(C)o2)cc1	-1.6	-3.8	2.2%	-8.6	5.4	0.0
CCOC(=O)C1=NNC(C(=O)c2ccccc2)C1c1ccc(C)cc1 (configuration not stated)	-7.4	-26.8	1.9%	0.2	-9.8	-0.7
COc1ccc(OC)c(N(C)S(=O)(=O)c2cc3c(cc2C)NC(=O)CO3)c1	-1.4	4.8	1.8%	14.9	4.1	-0.3
COc1ccc(OC)c(/C=C/C(=O)Nc2ccc(OC)nc2)c1	-2.9	-2.8	2.3%	-0.4	-4.5	0.4
COc1ccc(C(=O)Nc2cccc(-c3nc4ncccc4o3)c2C)cc1	6.3	-4.6	-2.3%	-15.1	1.0	-0.6
CN1/C(=C\C(=O)C[n+]2cccc(Br)c2)C(C)(C)c2ccccc21	-2.0	-7.5	0.1%	0.9	-3.7	-0.1
CC(C)[C@H]1COCCS(=O)(=O)N1Cc1ccccc1-c1ccc(C(C)(C)C)cc1	13.3	.	?	-7.1	-0.8	1.1
CCN1CCN(S(=O)(=O)c2ccc(Cl)c(C(=O)NC3CCC(C)CC3)c2)CC1 (configuration not stated)	1.6	1.9	0.5%	-8.5	-1.6	-0.8
CCC(CC)NCCOC(=O)c1ccc([N+](=O)[O-])cc1	15.9	-79.9	-1.0%	-7.5	-0.8	0.9
CCC(CC)C(=O)Nc1cccc(C(=O)Nc2nnc(C)s2)c1	-1.0	12.1	1.9%	-0.9	0.6	-0.1
CC(C)OCC1CC(CC(=O)Nc2ccc([N+](=O)[O-])cc2)C(=O)O1 (configuration not stated)	8.1	-11.8	0.1%	0.8	-2.0	0.5
O=C1CN(C(=O)/C=C/c2ccccc2)CCN1	3.9	-1.4	0.4%	-16.3	-0.6	1.1
CCOc1ccccc1NC(=O)Cn1c(=O)n(Cc2ccco2)c(=O)c2sc3ccccc3c21	.	.	0.8%	-2.3	.	-0.3
C/C(=N/OCc1ccc(Br)cc1)c1ccccn1	34.4	0.0	5.9%	6.9	6.6	-0.6
COc1cc(-c2cc(C(=O)OCC(=O)NC3CC3)c3ccccc3n2)cc(OC)c1OC	7.1	9.3	5.3%	-8.9	5.4	4.4
Cc1ccccc1C(=O)Nc1ccccc1C(=O)N/N=C\c1ccco1	-1.6	-16.0	0.7%	-1.2	-4.8	0.5
CC(C)(C)c1nc(SCC(=O)NCc2ccco2)c2ccccc2n1	-11.6	-17.2	2.8%	-2.6	-2.7	0.8
COc1ccc(OC)c2c1cc(C(=O)N[C@@H](Cc1ccccc1)C(=O)O)n2C	-2.2	2.9	0.2%	-1.6	2.6	0.4
CC(C)Cc1nc(C#N)c(N2CCC(C(N)=O)CC2)o1	0.9	-7.4	-0.1%	-6.1	1.9	-0.2
CC(=O)C1=C(C)Nc2ncnn2C1c1ccc(C)cc1 (configuration not stated)	1.5	-3.5	0.5%	.	4.0	.
Cc1cc(C)cc(OCC(=O)OCC(=O)NCc2cccs2)c1	-9.2	-2.7	-1.2%	-11.7	-0.8	5.6
CCOC(=O)Cc1csc(NC(=O)CSc2nnc(-c3ccc(F)cc3)o2)n1	0.5	-2.9	.	7.0	2.0	0.6
COc1ccccc1N1CC(C)(C)C(=O)N(C(=O)c2ccc(C)cc2)C1=S	10.7	0.5	-1.0%	-4.7	-2.0	-0.4
Cc1ccc2c(c1)c(C1=NC(=S)NC1=O)c(O)n2C	-29.1	-2.6	0.5%	-6.2	2.3	1.3
CC(=O)Nc1ccc(Nc2nc3ccccc3n3cnnc23)cc1	1.9	4.1	-0.3%	1.3	-8.4	2.5
O=C(CNS(=O)(=O)c1ccc(Br)cc1)N1CCN(c2ccc(F)cc2)CC1	-6.2	-7.5	2.9%	-17.2	-3.9	-1.1
Cc1oc(-c2ccccc2F)nc1CS(=O)(=O)CC(=O)NCCCN1CCc2ccccc2C1	-4.0	-6.7	2.9%	-2.4	-1.4	0.5

Fetched by structure from the entries so far:
SMILES	Six1-Eya2 inh	D2 potentiator	PINK1 expr mod	TRPML1 inh	D2 ag	TRPML1 agonist
Cc1ccccc1C(=O)Nc1ccccc1C(=O)N/N=C\c1ccco1	-1.6	-16.0	0.7%	-1.2	-4.8	0.5
CC(=O)Nc1ccc(Nc2nc3ccccc3n3cnnc23)cc1	1.9	4.1	-0.3%	1.3	-8.4	2.5

Continuation.
SMILES	Six1-Eya2 inh	D2 potentiator	PINK1 expr mod	TRPML1 inh	D2 ag	TRPML1 agonist
CCC(C)(NC(=O)c1ccc(=O)[nH]c1)C(=O)NC1CCCC1 (configuration not stated)	1.5	-4.2	0.0%	14.2	-5.1	-0.4
COc1cccc(CNC(=O)c2c(C)oc3nc(C)nc(N4CCOCC4)c23)c1	.	.	-4.8%	-19.8	.	0.3
CCOc1ccc(CN(C)C(=O)c2cc3ccccc3o2)cc1OC	10.5	-4.3	0.5%	-16.4	-1.8	-0.1
C=CCNc1cnn(-c2ccc(C)cc2)c(=O)c1Cl	5.0	-6.2	-3.7%	62.2	3.5	-0.3
COc1ccccc1NC(=O)COC(=O)c1ccc2c(=O)n3c(nc2c1)CCC3	3.7	-12.7	0.6%	6.0	-2.8	-0.1
O=C(c1ccco1)N1CCN(C(=O)c2ccc(Cn3cc(Br)cn3)o2)CC1	4.6	-28.8	2.3%	-10.0	-1.4	-0.7
COc1cc(CN2CCc3nc(N4CCN(c5ccccn5)CC4)ncc3C2)cc(OC)c1OC	.	.	1.2%	-0.6	.	0.0
CC(C)(Oc1ccc(Cl)cc1)C(=O)OCc1nc2ccsc2c(=O)[nH]1	-1.4	11.4	?	2.7	-2.1	-0.3
Cc1cccnc1CCNC(=O)CCc1nnc(-c2ccccc2)o1	15.4	-2.4	-0.2%	3.2	-3.3	-0.7
COc1ccc(N=Nc2ccc(O)c(P(=O)(c3ccccc3)c3ccccc3)c2)cc1	-1.7	0.1	-0.6%	.	3.7	.
CC(=O)c1cc(-c2ccccc2)n(CCC(=O)Nc2cc(C)cc(C)c2)c1C	.	.	-1.5%	37.7	.	2.5
CCN1C(=O)CC(Sc2ccccc2N)C1=O (configuration not stated)	3.9	4.1	-1.0%	6.6	-1.0	1.0
COC(=O)c1ccc2c(=O)n(CCCCCC(=O)NCc3ccc(OC)cc3)c(=O)[nH]c2c1	.	.	1.4%	-8.3	.	0.7
CCOc1ccccc1Nc1nc2ccccc2c2nncn12	.	.	-1.8%	-16.1	.	-0.1
Cc1cc(C)n(-c2ccc(C(=O)OCC(=O)Nc3ccc(Cl)c(S(=O)(=O)N(C)C)c3)cc2)n1	-12.1	-3.8	?	-11.0	-0.4	0.1
Cc1ccc(-c2cc(C(F)F)nc(S(C)(=O)=O)n2)cc1	1.0	-3.6	-1.8%	45.8	-1.2	1.5
COc1cccc(-c2cc(C(=O)NCC3CCCO3)c3ccccc3n2)c1 (configuration not stated)	-1.0	-8.2	3.1%	-18.1	-4.1	1.4
COCCN(C(=O)COC(=O)Cc1ccc(Cl)cc1)c1c(N)n(Cc2ccccc2)c(=O)[nH]c1=O	2.2	-10.8	-0.2%	-1.4	-3.3	-0.2
O=C(CSc1nnc(-c2ccco2)o1)c1ccccc1Cl	4.6	-9.5	-0.2%	-6.0	-5.0	0.5
O=C(CCCCC(=O)NN=Cc1ccccc1O)NN=Cc1ccccc1O	-15.2	-4.8	?	4.8	-3.2	-1.0
COc1cccc(N2CC(NS(=O)(=O)c3ccc(Cl)cc3)CC2=O)c1 (configuration not stated)	-1.3	-4.9	3.8%	-14.1	0.5	2.4
Cc1ccc(CNC(=O)CCc2c(C)nn(-c3ccc(N4CCCC4)nn3)c2C)cc1	.	.	0.1%	20.0	.	0.3
CCOc1ccc(OCC)c(NC(=O)C2CCN(S(=O)(=O)c3cccc4nonc34)CC2)c1	6.9	-19.2	15.0%	6.3	2.5	0.5
CCc1nc(Nc2ccncc2)c2oc3ccccc3c2n1	0.0	7.1	1.5%	-22.0	-4.8	-0.1
Fc1ccc(-c2ccnn2-c2ccccc2)cc1	2.5	-6.9	2.2%	.	-3.9	.
N#CC(C(=O)c1ccc(S(=O)(=O)N2CCCCCC2)cc1)c1nc2ccccc2[nH]1 (configuration not stated)	-1.6	-1.6	-4.1%[38.3 µM]	-0.2	-0.1	-0.8
CCCCn1cnc2c(SCCc3ccccc3)nc(N)nc21	-0.8	5.3	6.6%	-12.2	-2.2	14.3
COc1ccc(N2CS(=O)(=O)/C(=C/N(C)C)C2=O)cc1	-0.8	-2.7	-2.1%	2.0	5.6	0.3
COc1ccc(CCn2c(=O)c3cccnc3n(CC(=O)Nc3ccc(C)cc3C)c2=O)cc1OC	.	.	1.5%	0.9	.	-0.9
O=c1[nH]nnc2cc(Cl)ccc12	1.6	-2.7	3.2%	-3.2	-1.4	0.3
O=C1c2cccnc2C(Nc2ccc(F)c(Cl)c2)N1Cc1cccs1 (configuration not stated)	-2.3	-5.8	2.9%	1.3	-3.2	0.1
CCOc1ccc(OCCC(=O)Nc2ccc(F)cc2C)cc1	-3.2	9.8	-0.2%	-19.5	-4.2	1.7
COC(=O)c1oc2ccccc2c1NC(=O)/C=C/C(=O)O	-2.4	-3.9	1.8%	18.8	-0.1	-0.1
Cc1cc(C)cc(NC(=O)C2CCN(c3cc(C)nc4c(-c5ccc(Cl)cc5)c(C)nn34)CC2)c1	.	.	1.3%	-16.0	.	-0.1
Cc1cccc(NC(=S)NC(=O)/C=C/c2ccco2)n1	-19.2	10.5	4.3%	12.5	-5.7	-0.1
COc1ccc(OC)c(Nc2cc(C(=O)NCCCN3CCOCC3)c3ccccc3n2)c1	-8.5	-4.8	0.7%	6.1	-4.4	-0.6
CCc1sc(N(C(=O)Cc2ccccc2)c2ccccc2F)nc1-c1ccc(C)cc1	-4.1	-1.0	1.4%	-12.6	-5.5	1.4
